S aureus helic – S. aureus DNA helicase inhibition; purified S. aureus helicase, fluorescence unwinding assay; about half of the hits fall short of the stated cut; inhibition, %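 (tested at about 80 µM)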; hit rate 0.05% among 120,000; AID 485395;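 active = both duplicates at 50% or more, or one of them with a favoured structure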;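 also: 0% = mean of negative control wells and 100% = mean of positive control wells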
MgrA DNA FP – alters Staphylococcus aureus MgrA binding to DNA; hit rate 0.13% among 84,000; inhibition, %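 (about 10 µg/mL by stock and volumes)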; fluorescence polarization;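 active = above 50% in either of two replicates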;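 also: 0% = protein plus DNA without compound and 100% = DNA alone without protein; higher means less MgrA bound to DNA so lower polarization; one replicate is shown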
Numbers without * were called inactive. An excerpt; rates above refer to the full screens.

Results for CCCC1OC23CCCCC2C(C#N)(C(=N)O3)C1(C#N)C#N (stereo not drawn) ?
S aureus helic: 10

Results for CNC(=O)c1ccc(N2CCCC2=O)cc1 ?
S aureus helic: 13

Results for CCOC(=O)c1cccc(NC(=O)Cn2c(CC(=O)N3CCCC3)nc3ccccc32)c1 ?
S aureus helic: 7; MgrA DNA FP: -2.1

Results for N#Cc1c(NC(=O)c2cccs2)sc2c1CCCCC2 ?
S aureus helic: 9; MgrA DNA FP: -0.9

Results for COc1cccc(C2c3c(C)nn(C)c3NC(=O)C2NC(=O)c2ccccc2)c1 (stereo not drawn) ?
S aureus helic: -1

What do the screens show for `Cc1cccc(C)c1NC(=S)N1CCCc2cccc(C)c21`?
MgrA DNA FP: -0.8

How did COc1ccc(C2NC(=O)c3ccccc3N2C)cc1 (stereo not drawn) do in these assays?
S aureus helic: 9

Results for O=C(Nc1ccc(Cl)cc1)NC1CCCCNC1=O (stereo not drawn) ?
MgrA DNA FP: -1.1

How did COC(=O)C1C(=O)N2CCCSC2=C(C#N)C1c1cccs1 (stereo not drawn) do in these assays?
S aureus helic: 6

Results for CC(C)OC(=O)C(C)Oc1ccc2c(-c3ccccc3)cc(=O)oc2c1 (stereo not drawn) ?
S aureus helic: 16; MgrA DNA FP: -1.0

What do the screens show for `O=c1[nH]n(CC2COC3(CCCCC3)O2)c(=O)c2ccccc12` (stereo not drawn)?
S aureus helic: 4; MgrA DNA FP: -0.5

How did CC(C)(C)NC[C@H](O)COc1nsnc1N1CCOCC1 do in these assays?
MgrA DNA FP: -2.8

How did CC(C)NC(=O)CCn1c(=O)sc2ccccc21 do in these assays?
S aureus helic: -10; MgrA DNA FP: -0.9

Results for CC1Cc2ccccc2N1C(=O)CCS(=O)(=O)c1cccs1 (stereo not drawn) ?
S aureus helic: 2

How did Cc1nn(C)c(C)c1S(=O)(=O)N(CC(=O)N1CCCC1)c1ccc(C(C)C)cc1 do in these assays?
S aureus helic: 0; MgrA DNA FP: -0.2

What do the screens show for `CNC(=O)Nc1cccc2cccnc12`?
MgrA DNA FP: -0.3

What do the screens show for `CCC1CSC(Nc2cccc(Cl)c2)=N1` (stereo not drawn)?
S aureus helic: -16

How did O=C(Nc1ccc(F)cc1)C1CCCN(c2ncccn2)C1 (stereo not drawn) do in these assays?
S aureus helic: -10

What do the screens show for `O=C(CCC1CCCC1)Nc1c2c(nn1-c1ccc(F)cc1)CS(=O)(=O)C2`?
S aureus helic: -17

What do the screens show for `Cc1ccc(NS(=O)(=O)N2CCCCC2)cc1`?
S aureus helic: 1; MgrA DNA FP: 1.2

How did COC(=O)C1=C(C)Nc2ncnn2C1c1ccccc1 (stereo not drawn) do in these assays?
S aureus helic: 17

How did Cn1ccnc1S/C(=C/C=C(C#N)C#N)c1ccc(Cl)cc1 do in these assays?
S aureus helic: -35

How did CC1CC(C)CN(S(=O)(=O)c2ccc(C(=O)Nc3nc4ccc(Cl)cc4s3)cc2)C1 (stereo not drawn) do in these assays?
MgrA DNA FP: 1.2

Results for O=C(NCc1ccccc1)c1ccccc1OCc1nnc(-c2ccc(Cl)cc2)o1 ?
S aureus helic: -15

Results for CCCCNc1nc2c(S(=O)(=O)c3ccccc3)nnn2c2ccsc12 ?
S aureus helic: 13

Results for CC1(C)Cc2cccc(C(=O)NCc3cccnc3)c2O1 ?
MgrA DNA FP: -0.8

What do the screens show for `COc1ccc(C2CC(c3ccccc3)=NN2C(=O)CCCC(=O)O)cc1OC` (stereo not drawn)?
MgrA DNA FP: 2.3

What do the screens show for `CC1(C)CC(=O)c2c(S(C)(=O)=O)sc(C(=O)OCc3ccccc3)c2C1`?
MgrA DNA FP: 0.8

Results for N#Cc1cn(-c2ccc(F)cc2F)c(=O)[nH]c1=O ?
MgrA DNA FP: 1.7

Results for COC(=O)c1ccccc1NC(=O)Cc1ccc(Cl)cc1 ?
S aureus helic: 8; MgrA DNA FP: -1.8

What do the screens show for `Cc1nn(C)c(C)c1S(=O)(=O)NCc1ccc2c(c1)CCO2`?
MgrA DNA FP: -2.2

What do the screens show for `COc1ccc(S(=O)(=O)Nc2cncc(C(=O)N3CCN(c4ccc(F)cc4)CC3)c2)cc1`?
S aureus helic: 7; MgrA DNA FP: -0.6

What do the screens show for `O=C1CC(Sc2ccc(Cl)cc2)C(=O)N1Cc1cccnc1` (stereo not drawn)?
S aureus helic: 10

What do the screens show for `C=CCN1C(=O)/C(=C/c2ccc(OC)c(Oc3ccc([N+](=O)[O-])cc3[N+](=O)[O-])c2)SC1=S`?
MgrA DNA FP: -2.2

What do the screens show for `CC(=O)Nc1nc2c(s1)C(=O)NCCC2`?
MgrA DNA FP: -1.2

Results for CCOC(=O)C1C(=O)NCC2CCCC21 (stereo not drawn) ?
S aureus helic: 16

What do the screens show for `Cc1cccc(C)c1NC1=NC(C)(CO)CS1` (stereo not drawn)?
MgrA DNA FP: 0.7

Results for Cc1cccc(C2N3CC4(C)CN2CC(C)(C3)C4)c1 (stereo not drawn) ?
S aureus helic: -18

What do the screens show for `CC(C)Cc1nnc(N)s1`?
S aureus helic: 5; MgrA DNA FP: -2.0

How did CCn1c(SCc2cc(=O)[nH]c3ccccc23)nnc1C1CC1 do in these assays?
S aureus helic: -6; MgrA DNA FP: 1.2

What do the screens show for `CCCS(=O)(=O)NCc1cn2c(C)csc2n1`?
S aureus helic: 11; MgrA DNA FP: 0.6

Results for CCN(CC)C(=O)Cn1c(=O)n(Cc2ccccc2)c(=O)c2c3c(sc21)CCC3 ?
S aureus helic: -15; MgrA DNA FP: 1.3

How did C=CCNC(=O)CSc1nnc(-c2ccc3nonc3c2)n1C do in these assays?
MgrA DNA FP: 1.5

How did COc1ccc(CNCC2CCC(C(=O)O)CC2)cc1 (stereo not drawn) do in these assays?
S aureus helic: -6

How did COc1ccccc1NC(=O)CCC1CC(=O)OC1c1ccccc1 (stereo not drawn) do in these assays?
S aureus helic: 7; MgrA DNA FP: 4.2

What do the screens show for `Cn1c(CN2CC(c3ccccc3)CC2=O)n[nH]c1=S` (stereo not drawn)?
S aureus helic: 2; MgrA DNA FP: 2.1

Results for Cc1ccnc(NC(=O)c2ccc3c(c2)C(=O)N(Cc2ccco2)C3=O)c1 ?
S aureus helic: 0; MgrA DNA FP: 30*

What do the screens show for `O=C(CO)Nc1cccc2nsnc12`?
S aureus helic: 5

How did Cc1ccc(Cn2ccc(NC(=O)c3c(-c4ccccc4Cl)noc3C)n2)cc1 do in these assays?
S aureus helic: 19

What do the screens show for `CCC(C)NC(=O)/C=C/c1ccc(C)cc1` (stereo not drawn)?
S aureus helic: 12; MgrA DNA FP: 1.4

Results for Cn1c(SCC(=O)N2CCCC(c3nc4ccccc4s3)C2)nc2ccccc21 (stereo not drawn) ?
S aureus helic: -6

Results for FC(F)(F)c1ccc(Cl)c(NNC2=NCCCCC2)c1 ?
S aureus helic: 10

Results for O=S1(=O)N=C2CCCCCN2C(c2ccc(Br)cc2)N1 (stereo not drawn) ?
S aureus helic: -4

What do the screens show for `O=C(NCCCc1ccccc1)c1ccc(Br)o1`?
S aureus helic: 13; MgrA DNA FP: -1.2

How did Cc1cccnc1NC(=O)NC(C)(C(F)(F)F)C(F)(F)F do in these assays?
S aureus helic: 5; MgrA DNA FP: 2.1

What do the screens show for `Cc1cc(Cl)ccc1OCc1nnc(SCC(=O)O)n1C1CCCCC1`?
S aureus helic: -9

Results for CC(C)c1ccc(C(=O)COC(=O)C(O)c2ccccc2)cc1 (stereo not drawn) ?
S aureus helic: -15

How did CCN1C(=S)SC(=O)C1=C1C=C(C)N(CCOC)C(C)=C1 do in these assays?
S aureus helic: -9

How did c1ccc(-c2ccc(CNCc3ccco3)o2)cc1 do in these assays?
S aureus helic: 0; MgrA DNA FP: 0.5

How did CCCCCCC1COC(c2ccc(O)cc2)OC1 (stereo not drawn) do in these assays?
S aureus helic: 26

What do the screens show for `O=C1CCCC2=C1C(c1cccc(Br)c1)Nc1ccc(C(=O)c3ccccc3)cc1N2` (stereo not drawn)?
MgrA DNA FP: -0.9

Results for CC1S/C(=N/N=C/c2ccccc2)NC1=O (stereo not drawn) ?
S aureus helic: 8

Results for CCc1ccc(C2=NC(C)(CC)NC(c3cc(Cl)ccc3O)C2)cc1 (stereo not drawn) ?
S aureus helic: 7; MgrA DNA FP: 0.5

Results for Cc1cc(NC(C)c2ccccc2)n2c(nc3ccccc32)c1C#N (stereo not drawn) ?
S aureus helic: -14; MgrA DNA FP: -0.2

Results for CSC(=S)Nc1ccc(Cl)cc1 ?
MgrA DNA FP: 3.3

Results for Cc1cc(F)ccc1S(=O)(=O)Nc1ccc2c(c1)N(C(=O)C1CC1)CCC2 ?
S aureus helic: 11

How did Cc1nn(-c2ccccc2)c2c1-c1sc(C(=O)NCc3cccs3)cc1CC2 do in these assays?
S aureus helic: 12

How did O=C(N1CCOCC1)N1CCC(NC(=O)C23CC4CC(CC(C4)C2)C3)CC1 do in these assays?
S aureus helic: 6; MgrA DNA FP: 1.5

Results for COc1ccc2ccccc2c1C1C(C(C)=O)=C(C)N=c2s/c(=C\c3ccc(N(C)C)cc3)c(=O)n21 (stereo not drawn) ?
MgrA DNA FP: -0.3

What do the screens show for `O=C(NCCO)c1ccc(Nc2nc(-c3ccccc3)c3cc(Cl)ccc3n2)cc1`?
S aureus helic: 9

Results for NS(=O)(=O)c1ccc(S(=O)(=O)NCCc2c[nH]c3ccccc23)cc1 ?
S aureus helic: 6; MgrA DNA FP: 0.5

What do the screens show for `O=C(O)CCCC(=O)N1N=C(c2ccccc2)CC1c1ccccc1` (stereo not drawn)?
S aureus helic: -6

Results for NS(=O)(=O)c1csc(C(=O)Nc2ccccc2)c1 ?
S aureus helic: 5; MgrA DNA FP: -2.0

What do the screens show for `COc1ccc(C2SCC(=O)N2c2c(C)n(C)n(-c3ccccc3)c2=O)c(OC)c1` (stereo not drawn)?
MgrA DNA FP: 0.0

What do the screens show for `O=C(NC1CCN(C(=O)Cc2ccccc2)CC1)C1CCCCC1`?
MgrA DNA FP: -0.1

How did CC(C)CNC(=O)c1cccc(C(=O)NCC(C)C)c1 do in these assays?
S aureus helic: -6

What do the screens show for `CC1Cc2ccccc2N1C(=O)COC(=O)c1ccccc1N=NN(C)C` (stereo not drawn)?
S aureus helic: -6

Results for Cc1noc(C)c1S(=O)(=O)N1CCC(C(=O)NCCCN2CC(C)CC(C)C2)CC1 (stereo not drawn) ?
S aureus helic: 29

How did COc1ccc(NC(=S)N2CCOCC2)cc1 do in these assays?
MgrA DNA FP: 0.4

How did CCOC(=O)C(Cc1c[nH]c2ccccc12)NC(=O)COc1cc(C)c(Cl)c(C)c1 (stereo not drawn) do in these assays?
MgrA DNA FP: -2.2

What do the screens show for `O=C(CSc1ncnc2nc[nH]c12)c1ccc2ccccc2c1`?
S aureus helic: 0; MgrA DNA FP: -3.8

Results for COC(=O)c1ccc(Cn2ccnc2)cc1 ?
S aureus helic: -3; MgrA DNA FP: 0.5

What do the screens show for `Cc1c(S(=O)(=O)Nc2ccc(S(C)(=O)=O)cc2)sc2ccc(Cl)cc12`?
MgrA DNA FP: -3.5

Results for Cn1cnn(CN2CCCCC2)c1=S ?
S aureus helic: -17

How did Cc1ccc(CNC(=O)c2cc(C3CC3)nc3c2cnn3C(C)C)cc1 do in these assays?
S aureus helic: -12

Results for OC1c2ccccc2-c2ccccc2C1O (stereo not drawn) ?
S aureus helic: 7

What do the screens show for `CC(C)(C)S(=O)(=O)Cc1nc(-c2ccc(F)c(F)c2)cs1`?
MgrA DNA FP: -3.5

Results for CN(Cc1ccccc1)C(=O)C1=CC(c2cccs2)=NS(=O)(=O)N1C ?
S aureus helic: -21

Results for Nc1ncc(C(F)(F)F)cc1Cl ?
S aureus helic: 20

Results for Cc1cc(C)n2nc(SCC(=O)N3CCNC3=O)nc2n1 ?
S aureus helic: 16
